UUG fidelity = modulators of start codon recognition fidelity in yeast; AID 602363; 350,000 compounds, 0.13% hits; S. cerevisiae UUG-firefly luciferase reporter, luminescence/redox ratio; activity score, % at 18.7 µM;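 active = replicate mean at a twofold rise or more, about +100% in these data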;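 note: firefly luciferase made from a UUG start codon reports start codon fidelity; reporter light over untreated wells divided by growth signal over untreated wells; some hits fall short of that in this replicate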
HIV Env fusion = inhibitors of HIV Env-mediated cell fusion; AID 651610; 360,000 compounds, 1.1% hits; HeLa-JRFL Env/CEM21 cell fusion, luciferase; inhibition, % at 12.3 µM;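 active = mean replicate inhibition score of at least 50 and every replicate individually at or above 50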;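 note: 0% = plate neutral controls and 100% = maraviroc near 300 nM; one replicate is shown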
The depositor's hits bear a star; [ ] = dose if it differs, or a comment.

| molecule | HIV Env fusion | UUG fidelity |
| --- | --- | --- |
| CC(C)C#Cc1ccc2c(c1)O[C@H](CN(C)C(=O)c1cccnc1)[C@H](C)CN([C@H](C)CO)S2(=O)=O | 12.1[16.7 µM] | 5.9 |
| C[C@H]1CCCCO[C@H](CN(C)C(=O)CCC(F)(F)F)[C@@H](C)CN([C@@H](C)CO)C(=O)c2cc(NS(=O)(=O)c3cn(C)cn3)ccc2O1 | -13.2[16.7 µM] | -16.1 |
| C[C@H]1CN([C@@H](C)CO)C(=O)c2cc(NC(=O)Cc3cn(C)c4ccccc34)ccc2O[C@@H]1CN(C)Cc1ccccc1 | 0.7[16.7 µM] | 11.0 |
| C[C@H]1CN([C@@H](C)CO)C(=O)c2cc(C#Cc3ccccc3)cnc2O[C@@H]1CN(C)C(=O)C1CC1 | 3.7[16.7 µM] | -4.4 |
| COCc1cn(CC[C@@H]2CC[C@@H](NC(=O)Nc3ccc(OC)cc3)[C@H](CO)O2)nn1 | -14.5[16.7 µM] | 2.4 |
| C[C@H](CO)N1C[C@H](C)[C@H](CN(C)CC2CC2)Oc2ccc(NC(=O)Cn3cnnn3)cc2C1=O | 10.7[16.7 µM] | 15.3 |
| C[C@@H]1CN([C@@H](C)CO)C(=O)c2cc(NS(=O)(=O)c3cn(C)cn3)ccc2O[C@@H](C)CCCCO[C@@H]1CN(C)S(=O)(=O)c1ccc(F)cc1 | -41.7[16.7 µM] | 18.0 |
| C[C@H](CO)N1C[C@H](C)[C@H](CN(C)S(=O)(=O)c2cccs2)Oc2ccc(NS(=O)(=O)c3ccc(Cl)cc3)cc2C1=O | 26.9[16.7 µM] | -3.5 |
| C[C@@H]1CN([C@H](C)CO)C(=O)Cc2cc(NS(=O)(=O)c3cn(C)cn3)ccc2O[C@@H]1CN(C)S(=O)(=O)c1ccccc1 | -5.2[16.7 µM] | -8.6 |
| COc1ccc(CN(C)C[C@H]2OCCCC[C@@H](C)Oc3ccc(NC(=O)Nc4ccc(F)cc4)cc3C(=O)N([C@H](C)CO)C[C@H]2C)cc1 | -16.6[16.7 µM] | 12.1 |
| COc1ccc(S(=O)(=O)Nc2ccc3c(c2)CC(=O)N([C@H](C)CO)C[C@@H](C)[C@@H](CN(C)S(=O)(=O)c2c(C)noc2C)O3)cc1 | -8.5[16.7 µM] | 4.0 |
| C[C@@H]1CN([C@H](C)CO)S(=O)(=O)c2ccc(C#CC3CC3)cc2O[C@@H]1CN(C)S(C)(=O)=O | 14.1[16.7 µM] | 3.8 |
| CNC(=O)C[C@H]1CC[C@@H]2[C@@H](COc3ccc(NC(=O)NCc4ccccc4)cc3C(=O)N2C)O1 | -10.1[16.7 µM] | 15.9 |
| C[C@H](CO)N1C[C@H](C)[C@H](CN(C)C(=O)Nc2cccc3ccccc23)Oc2ccc(NC(=O)Nc3cccc4ccccc34)cc2CC1=O | 10.6[16.7 µM] | -15.4 |
| CCCC(=O)Nc1ccc2c(c1)C(=O)N(C)C[C@@H](OC)[C@@H](C)CN(CCC)[C@@H](C)CO2 | -4.3[16.7 µM] | -1.7 |
| COc1ccc(S(=O)(=O)N(C)C[C@@H]2Oc3ccc(NC(=O)Nc4ccc5c(c4)OCO5)cc3CC(=O)N([C@@H](C)CO)C[C@H]2C)cc1 | 32.8[16.7 µM] | -5.1 |
| CO[C@H]1CN(C)C(=O)c2cc(NC(=O)c3cnccn3)ccc2OC[C@@H](C)N(C)C[C@H]1C | -15.8[16.7 µM] | -2.3 |
| O=C(Nc1ccc(F)cc1)Nc1ccc2c(c1)[C@H]1C[C@H](CC(=O)N3CCCCC3)O[C@H](CO)[C@H]1O2 | -0.9[16.7 µM] | 9.5 |
| Cc1noc(C)c1S(=O)(=O)N(C)C[C@@H]1OCCCC[C@@H](C)Oc2ccc(NS(=O)(=O)c3cn(C)cn3)cc2C(=O)N([C@@H](C)CO)C[C@H]1C | -44.6[16.7 µM] | 10.6 |
| COc1ccc(C(=O)Nc2ccc3c(c2)C(=O)N(C)C[C@H](OC)[C@@H](C)CN[C@H](C)CO3)cc1 | -0.1[16.7 µM] | -8.0 |
| Cc1ccc(S(=O)(=O)N(C)C[C@@H]2OCCCC[C@H](C)Oc3ccc(NC(=O)NC(C)C)cc3C(=O)N([C@H](C)CO)C[C@H]2C)cc1 | 0.7[16.7 µM] | -0.8 |
| Cc1noc(C)c1S(=O)(=O)N(C)C[C@@H]1OCCCC[C@@H](C)Oc2ccc(NS(=O)(=O)c3ccc(Cl)cc3)cc2C(=O)N([C@@H](C)CO)C[C@H]1C | 11.1[16.7 µM] | -6.7 |
| C[C@@H]1CCCCO[C@@H](CN(C)C(=O)NC2CCCCC2)[C@H](C)CN([C@@H](C)CO)C(=O)c2cc(NC(=O)C3CCCCC3)ccc2O1 | -22.5[16.7 µM] | -7.2 |
| CCS(=O)(=O)Nc1ccc2c(c1)C(=O)N(C)[C@H]1CC[C@H](CC(=O)Nc3ccccc3)O[C@@H]1CO2 | 3.9[16.7 µM] | 1.7 |
| C[C@H]1CN([C@@H](C)CO)C(=O)c2cc(/C=C/c3ccccc3)cnc2O[C@@H]1CN(C)C(=O)CN1CCOCC1 | -12.1[16.7 µM] | -8.6 |
| CCCC#Cc1ccc2c(c1)O[C@@H](CN(C)C(=O)c1ccncc1)[C@H](C)CN([C@@H](C)CO)S2(=O)=O | 8.3[16.7 µM] | 0.9 |
| CC(=O)N(C)C[C@H]1Oc2ncc(C#Cc3ccccc3)cc2C(=O)N([C@H](C)CO)C[C@H]1C | 3.1[16.7 µM] | 1.1 |
| Cc1ccc(S(=O)(=O)N(C)C[C@H]2Oc3ccc(NS(=O)(=O)c4c(C)noc4C)cc3CC(=O)N([C@H](C)CO)C[C@@H]2C)cc1 | 9.4[16.7 µM] | 56.9 |
| CCCN(C)C[C@H]1Oc2cc(C#Cc3ccc(F)cc3)ccc2S(=O)(=O)N([C@H](C)CO)C[C@H]1C | 6.7[16.7 µM] | 1.8 |
| C[C@H](CO)N1C[C@H](C)[C@H](CN(C)C(=O)c2ccccc2)Oc2cc(C3=CCCCC3)ccc2S1(=O)=O | -2.4[16.7 µM] | 14.5 |
| C[C@@H]1CN([C@H](C)CO)S(=O)(=O)c2ccc(C#CC(C)(C)O)cc2O[C@@H]1CN(C)Cc1ccccc1 | 14.5[16.7 µM] | -15.7 |
| Cc1ccc(S(=O)(=O)N[C@H]2CC[C@H](CCNC(=O)Cc3ccccn3)O[C@H]2CO)cc1 | -0.8[16.7 µM] | -3.2 |
| CCC(=O)N[C@@H]1C=C[C@@H](CC(=O)NCc2ccccc2F)O[C@H]1CO | -8.9[16.7 µM] | -1.6 |
| CC(C)NC(=O)N(C)C[C@@H]1Oc2ccc(NC(=O)NC3CCCCC3)cc2C(=O)N([C@@H](C)CO)C[C@H]1C | 10.5[16.7 µM] | -8.4 |
| O=C(C[C@@H]1CC[C@H](NS(=O)(=O)c2ccc(F)cc2)[C@@H](CO)O1)N1CCC(Cc2ccccc2)CC1 | 11.5[16.7 µM] | 13.8 |
| C[C@@H]1CCCCO[C@H](CN(C)C(=O)CCC(F)(F)F)[C@@H](C)CN([C@H](C)CO)C(=O)c2cc(NC(=O)C3CCCCC3)ccc2O1 | 15.7[16.7 µM] | 0.0 |
| C[C@H](CO)N1C[C@H](C)[C@@H](CN(C)CC2CC2)Oc2ccc(NC(=O)Nc3ccccc3)cc2CC1=O | -2.6[16.7 µM] | 20.6 |
| C[C@H]1CCCCO[C@H](CN(C)S(=O)(=O)c2ccccc2)[C@@H](C)CN([C@@H](C)CO)C(=O)c2cc(NC(=O)Cc3ccccc3)ccc2O1 | -91.4[16.7 µM] | 43.7 |
| C[C@@H]1CCCCO[C@@H](CN(C)C(=O)NC2CCCCC2)[C@H](C)CN([C@@H](C)CO)C(=O)c2cc(NS(=O)(=O)c3ccc(F)cc3)ccc2O1 | -44.6[16.7 µM] | -11.3 |
| COc1ccc(S(=O)(=O)N(C)C[C@@H]2Oc3cc(C#CC4CC4)ccc3S(=O)(=O)N([C@H](C)CO)C[C@H]2C)cc1 | 26.9[16.7 µM] | -15.3 |
| COc1ccc(S(=O)(=O)N[C@@H]2CC[C@@H](CCNC(=O)Cc3ccccn3)O[C@H]2CO)cc1 | -5.1[16.7 µM] | 16.7 |
| COC(=O)C[C@H]1CC[C@@H]2[C@H](COC[C@@H](O)CN2CCC(F)(F)F)O1 | -14.0[16.7 µM] | -8.6 |
| C[C@H]1CN([C@@H](C)CO)C(=O)c2cccc(N(C)C)c2O[C@@H]1CN(C)S(=O)(=O)c1cn(C)cn1 | 2.6[16.7 µM] | -1.3 |
| C[C@@H]1CN([C@H](C)CO)C(=O)c2cccc(NS(=O)(=O)c3cn(C)cn3)c2O[C@@H]1CN(C)C(=O)Nc1ccc(F)cc1 | 9.2[16.7 µM] | -3.1 |
| C[C@H]1CN([C@@H](C)CO)C(=O)Cc2cc(NS(C)(=O)=O)ccc2O[C@@H]1CN(C)S(=O)(=O)c1ccc(F)cc1 | -3.4[16.7 µM] | 10.4 |
| C[C@H]1CN([C@@H](C)CO)C(=O)c2cc(C#CCN(C)C)cnc2O[C@H]1CN(C)Cc1ccncc1 | -1.7[16.7 µM] | -23.2 |
| CN(C)CC(=O)Nc1ccc2c(c1)[C@H]1C[C@@H](CC(=O)NCCN3CCCCC3)O[C@H](CO)[C@H]1O2 | -5.4[16.7 µM] | -11.3 |
| COc1ccc(NC(=O)Nc2ccc3c(c2)C(=O)N([C@H](C)CO)C[C@H](C)[C@@H](CN(C)Cc2ccc(C(=O)O)cc2)OCCCC[C@H](C)O3)cc1 | -1.9[16.7 µM] | -0.4 |
| CCC(=O)Nc1ccc2c(c1)C(=O)N(C)[C@H]1CC[C@@H](CC(=O)Nc3cccc(OC)c3)O[C@@H]1CO2 | -4.9[16.7 µM] | 14.9 |
| O=C(C[C@H]1C=C[C@H](NC(=O)c2ccncc2)[C@H](CO)O1)NCC1CCCCC1 | 0.0[16.7 µM] | 8.5 |
| O=C1O[C@@H](c2ccccc2)[C@@H](c2ccccc2)N2[C@@H](c3ccc(OCCO)cc3)[C@]3(C(=O)Nc4ccccc43)[C@@H](C(=O)N3CCN(c4ncccn4)CC3)[C@H]12 | -124.9[16.7 µM] | -17.0 |
| Cc1noc(C)c1NC(=O)N[C@H]1CC[C@@H](CCNC(=O)C2CCCC2)O[C@H]1CO | -5.0[16.7 µM] | 0.1 |
| C[C@@H]1CCCCO[C@@H](CN(C)Cc2ccc(C(=O)O)cc2)[C@H](C)CN([C@@H](C)CO)C(=O)c2cc(NS(=O)(=O)c3cn(C)cn3)ccc2O1 | 5.7[16.7 µM] | -8.9 |
| C[C@H](CO)N1C[C@H](C)[C@H](CN(C)C(=O)c2ccncc2)Oc2cc(-c3cccc(C#N)c3)ccc2S1(=O)=O | -6.7[16.7 µM] | -11.6 |
| O=C(Cc1ccccn1)NCC[C@H]1CC[C@H](NC(=O)Nc2ccccc2)[C@@H](CO)O1 | 4.9[16.7 µM] | 11.3 |
| CO[C@H]1CN(C)C(=O)c2ccc(NC(C)=O)cc2OC[C@@H](C)N(C(=O)Cc2cccnc2)C[C@H]1C | -4.0[16.7 µM] | -7.9 |
| Cc1ccc(S(=O)(=O)Nc2ccc3c(c2)C(=O)N([C@@H](C)CO)C[C@@H](C)[C@H](CN(C)Cc2ccc4c(c2)OCO4)OCCCC[C@H](C)O3)cc1 | -20.2[16.7 µM] | 21.3 |
| COc1ccc(NC(=O)Nc2ccc3c(c2)C(=O)N([C@H](C)CO)C[C@@H](C)[C@H](CN(C)S(=O)(=O)c2cn(C)cn2)OCCCC[C@H](C)O3)cc1 | 7.1[16.7 µM] | 14.0 |
| C[C@@H]1CN([C@@H](C)CO)C(=O)Cc2cc(NS(=O)(=O)c3ccc(Cl)cc3)ccc2O[C@@H]1CN(C)C(=O)Nc1cccc2ccccc12 | -23.5[16.7 µM] | -6.4 |
| Cc1noc(C)c1NC(=O)N(C)C[C@@H]1Oc2c(NS(=O)(=O)c3ccc(F)cc3)cccc2C(=O)N([C@@H](C)CO)C[C@@H]1C | 15.5[16.7 µM] | 9.9 |

5 entries already listed, ordered by length of the SMILES, rising.
| molecule | HIV Env fusion | UUG fidelity |
| --- | --- | --- |
| COc1ccc(C(=O)Nc2ccc3c(c2)C(=O)N(C)C[C@H](OC)[C@@H](C)CN[C@H](C)CO3)cc1 | -0.1[16.7 µM] | -8.0 |
| CCS(=O)(=O)Nc1ccc2c(c1)C(=O)N(C)[C@H]1CC[C@H](CC(=O)Nc3ccccc3)O[C@@H]1CO2 | 3.9[16.7 µM] | 1.7 |
| CCC(=O)Nc1ccc2c(c1)C(=O)N(C)[C@H]1CC[C@@H](CC(=O)Nc3cccc(OC)c3)O[C@@H]1CO2 | -4.9[16.7 µM] | 14.9 |
| CC(C)C#Cc1ccc2c(c1)O[C@H](CN(C)C(=O)c1cccnc1)[C@H](C)CN([C@H](C)CO)S2(=O)=O | 12.1[16.7 µM] | 5.9 |
| COc1ccc(CN(C)C[C@H]2OCCCC[C@@H](C)Oc3ccc(NC(=O)Nc4ccc(F)cc4)cc3C(=O)N([C@H](C)CO)C[C@H]2C)cc1 | -16.6[16.7 µM] | 12.1 |

The list goes on.
| molecule | HIV Env fusion | UUG fidelity |
| --- | --- | --- |
| Cc1ccc(S(=O)(=O)N(C)C[C@H]2OCCCC[C@H](C)Oc3ccc(NC(=O)Nc4c(C)noc4C)cc3C(=O)N([C@@H](C)CO)C[C@@H]2C)cc1 | -22.6[16.7 µM] | -4.9 |
| C[C@@H]1CN([C@@H](C)CO)S(=O)(=O)c2ccc(C3=CCCC3)cc2O[C@@H]1CN(C)C(=O)C1CCOCC1 | 69.7*[16.7 µM] | 4.9 |
| COCCNC(=O)C[C@@H]1C[C@H]2c3cc(NC(=O)Cc4ccncc4)ccc3O[C@H]2[C@@H](CO)O1 | -0.4[16.7 µM] | -1.9 |
| C[C@@H]1CN([C@H](C)CO)C(=O)c2cccc(NS(=O)(=O)c3ccccc3)c2O[C@H]1CN(C)C(=O)Nc1ccccc1 | -24.3[16.7 µM] | 20.2 |
| C[C@H](CO)N1C[C@H](C)[C@@H](CN(C)C(=O)Nc2ccc(C(F)(F)F)cc2)Oc2ncc(/C=C/c3ccccc3)cc2C1=O | -3.4[16.7 µM] | 12.5 |

Compound activity (PubChem BioAssay)

These rows are one share of the data; count on the stated rates, not on these rows.
